Screening results from PubChem.
HNF4A DNA FP: change in binding of human HNF4 alpha to DNA. P41235. HNF4a-FITC DNA binding, fluorescence polarization, 1 h. activity change, % at 10 µM. hit rate 0.3% among 360,000; in the data active means activity change above about 30%, passing the limit was not always enough;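 further: controls were the assay level and a saturating level of protein; the project sought stronger binding though the title names inhibitors; some compounds called inactive have numbers as strong as hits; positive values seem to mean higher polarization but the record does not say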
UCH37 DUB inh: inhibitors of human deubiquitinating enzyme UCH37. Q9Y5K5. hit rate 0.33% among 330,000. inhibition, % (concentration not given with the values). AID 588478. purified proteasome/UCH37, Ub-AMC cleavage fluorescence;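 active means mean of two replicates above 20%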;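 further: 0% = compound-free wells with enzyme and 100% = wells lacking proteasome; stock transfer was 100 nL into about 20 µL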
Target sequence (Q9Y5K5 whole entry, looked up): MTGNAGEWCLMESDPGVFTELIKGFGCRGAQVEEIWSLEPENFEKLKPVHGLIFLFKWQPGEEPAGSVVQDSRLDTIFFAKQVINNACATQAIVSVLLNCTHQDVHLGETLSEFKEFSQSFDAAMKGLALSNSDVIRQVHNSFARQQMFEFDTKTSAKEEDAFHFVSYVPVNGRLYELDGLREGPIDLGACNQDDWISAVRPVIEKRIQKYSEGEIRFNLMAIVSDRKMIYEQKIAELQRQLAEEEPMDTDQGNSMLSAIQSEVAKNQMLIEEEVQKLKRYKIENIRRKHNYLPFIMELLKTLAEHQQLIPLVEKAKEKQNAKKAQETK
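Schedule: 30 min plus 25 min, room temperature / Material: human UCH37 within purified proteasomes / Technique: AMC fluorescence intensity at 355/460 nm / Buffer or medium: pH 7.4 Tris-HCl (50 mM) with ovalbumin, ATP-MgCl2, DTT / Controls: wells without proteasome as full block, compound-free enzyme plus substrate as uninhibited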
LANA-H2A inh: blocks KSHV LANA binding to histone H2A/H2B. Q9QR71. cell-free LANA-H2A/H2B peptide, fluorescence polarization. inhibition, % (no concentration beside the values). hit rate 0.6% among 320,000; in the data active means inhibition mostly above about 10%, no sharp cut-off; inactive means mostly below about 6.7%;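 further: stock transfer was 7.5 nL into about 10 µL; 0% = median of vehicle wells and 100% = median of positive control wells; one replicate is shown; the record names a cut of 25% in any replicate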
B2AR ag: activates human beta-2 adrenergic receptor causing internalization. P07550. Am2.2-beta2AR cells, FAP receptor internalization, flow cytometry; reference of the scale not given here. response, % (no concentration beside the values). hit rate 0.43% among 340,000. AID 504454;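 active means response above a set limit, near 3 SD of response in nonfluorescent compounds, cut at about 42% in these data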;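 further: stock transfer was 100 nL into about 11 µL; a reference agonist was the positive control; negative values mostly stem from fluorescent compounds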
Target sequence (P07550 whole entry, looked up): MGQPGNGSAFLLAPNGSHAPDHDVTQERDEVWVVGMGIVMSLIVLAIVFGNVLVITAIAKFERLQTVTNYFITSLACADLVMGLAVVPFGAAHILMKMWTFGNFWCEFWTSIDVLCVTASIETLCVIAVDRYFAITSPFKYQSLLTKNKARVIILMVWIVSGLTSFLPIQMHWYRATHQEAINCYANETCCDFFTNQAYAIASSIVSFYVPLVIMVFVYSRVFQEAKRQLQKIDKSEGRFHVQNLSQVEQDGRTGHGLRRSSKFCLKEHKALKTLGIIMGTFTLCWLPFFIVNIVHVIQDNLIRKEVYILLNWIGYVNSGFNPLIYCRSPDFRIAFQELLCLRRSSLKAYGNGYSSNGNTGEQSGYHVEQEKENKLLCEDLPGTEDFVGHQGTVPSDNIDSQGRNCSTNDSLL
A1 inh: inhibitors of the anti-apoptotic protein A1, read as caspase activation. AID 2462. MEF A1-2A-BIM cells, Caspase-Glo 3/7 luminescence, 3 h; percent of clofoctol response, vehicle zero. caspase activation, % (test concentration not listed). hit rate 0.066% among 330,000;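 active means over half of replicate activation scores above 10%, or exactly half above 10 with the replicate mean above 10; inconclusive means replicate mean below 10 yet half the replicates above 10; inactive means over half of replicates below 10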;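 further: wells of about 30 µL received 50 nL stock; many hits fall short of the cut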
Vif A3G: HIV-1 Vif–A3G interaction blockers – biochemical, TR-FRET, GST-Vif 1-94, biotin-A3G peptide, dose response retest, primary screen (AID 1117319); one-dose inhibition, %; IC50 in µM for titrated hits; TR-FRET GST-Vif / biotin-A3G peptide binding; higher % means a stronger effect; test concentration not given here; strong numbers were not always called active; hit rate 0.57% among 260,000;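 active means above the screen mean plus three standard deviations and confirmed in dose response; inconclusive means results disagree or hit not tested in dose response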;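 further: Vif residues 1-94 fused to GST binding biotinylated APOBEC3G peptide 110-148; 0% = full assay without inhibitor and 100% = GST in place of GST-Vif; retest series ran down from 100 µM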
Ecoli growth: E. coli growth inhibition; Escherichia coli growth, OD600, 23 h; hits give low values; OD600 absorbance (concentration not given with the values); hit rate 0.21% among 330,000;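 active means OD600 absorbance below the run mean of sample wells minus 3.6 SD, in any replicate, cut at about 0.56 in these data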;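 further: stock transfer was 300 nL into about 60 µL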
Starred values were filed as active, the others as inactive; ? = inconclusive; nt = no result given; & = joins results of further samples.

SMILES	HNF4A DNA FP	UCH37 DUB inh	LANA-H2A inh	B2AR ag	A1 inh	Vif A3G	Ecoli growth
COc1ccccc1S(=O)(=O)Cc1ccc(C(=O)N2CCN(c3ccccn3)CC2)o1	0.2	10.4	2.2	-22.6	0.5	67.8%	0.764
CCn1ccnc1CN1CCCC(CO)(Cc2cccc(OC)c2)C1 (stereo not drawn)	1.6	4.0	nt	-0.7	0.2	-6.9%	0.697
CCOC(=O)CSc1nnc(Cn2nnc(-c3ccccc3)n2)n1C	3.9	-0.3	-2.9	0.1	0.2	18.9%	0.712
COc1cc(-c2nc(C)c(C(C)=O)n2O)ccc1OCC(=O)Nc1ccc(Cl)cc1	3.1	3.6	-3.4	4.8	-1.6	-7.7%	0.635
COc1ccc(CN2CCN(CCc3ccccc3)C(CCO)C2)c(Cl)c1OC (stereo not drawn)	0.2	0.2	-0.2	-4.2	-0.3	nt	0.688
CCS(=O)(=O)N1CCCC(c2nc(-c3cccc(OC)c3)no2)C1 (stereo not drawn)	-0.4	2.0	-2.3	4.8	-4.8	-3.6%	0.714
COc1ccc(-c2nc(SCC(=O)Nc3cc(C)on3)n[nH]2)cc1	2.4	0.5	2.0	4.0	0.0	7.8%	0.67
Cc1ccc(S(=O)(=O)N2CCC3(CC2)OCCO3)cc1	0.8	0.4	0.2	-4.5	0.2	nt	0.661
CCOc1ccc2c(C)nc(NC3=NC(C)(C)C=C(C)N3)nc2c1	4.6	-18.4	3.4	-1.4	0.7	-3.0%	0.678
Cc1ccccc1-c1ccc(Nc2ccc(N3CCOCC3)cc2)nn1	3.9	4.0	-6.1	5.3	-0.6	?	0.753
Cc1ccc(C2CC(=O)Nc3sc(C(N)=O)c(N)c32)cc1 (stereo not drawn)	-2.0	5.6	-2.5	8.5	0.4	5.2%	0.703
CCc1ccc(-c2nnn(Cc3nc4ccccc4s3)n2)cc1	-3.7	2.3	2.0	-5.8	0.1	-1.7%	0.697
Cc1cc(C)c(/C=C(\C#N)C(N)=S)c(C)c1	-2.1	5.3	-1.4	-1.9	1.5	-2.9%	0.623
C/C(=N\N=C1\NC(=O)C(CC(=O)Nc2ccccc2F)S1)C1CCCCC1 (stereo not drawn)	-1.1	nt	-0.6	-0.2	-0.1	nt	nt
COCCn1c(N)c(N(Cc2ccccc2)C(=O)Cc2c(Cl)cccc2Cl)c(=O)[nH]c1=O	-0.9	4.7	-5.3	-0.7	-0.4	nt	0.71
O=C(CCNC(=O)c1ccc([N+](=O)[O-])cc1)Nc1nccs1	0.1	3.5	5.8	3.0	0.8	5.7%	0.664
COc1ccc(C(=O)NCCNc2ccc([N+](=O)[O-])cn2)cc1	-6.2	10.9	-1.6	2.8	1.6	-5.5%	0.665
COC(=O)c1[nH]c2cc(OC)ccc2c1NC(=O)CN1CCC(C(N)=O)CC1	0.7	1.2	-2.7	4.5	0.5	-3.3%	0.687
O=C(Nc1nncs1)c1cccc(S(=O)(=O)N2CCc3ccccc32)c1	-3.9	-0.9	1.9	-0.7	1.1	-7.3%	0.697
CCc1nn(C)c2c(=O)c(=O)c2n(C)[nH]1	-4.9	6.2	9.9	-5.5	0.3	32.8%	0.674
Cc1cc(C(=O)O)ccc1-c1ccc(/C=C2\NC(=O)N(Cc3ccccc3Cl)C2=O)o1	-14.8	-80.9	-3.8	32.7	-0.3	?	nt
c1ccc(COc2ccccc2CNC2CCCC2)cc1	-0.6	nt	3.7	3.4	1.8	3.2%	nt
Cc1n[nH]c(C)c1S(=O)(=O)N1CCCC(C(=O)N2CCN(c3ccc(Cl)cc3)CC2)C1 (stereo not drawn)	0.9	0.4	1.9	6.0	0.4	-4.8%	0.765
CCOc1ccccc1OCCCC(=O)Nc1cccc(-n2cnnn2)c1C	0.3	-0.6	-0.8	2.8	-0.9	18.8%	0.649
CCC(Sc1ncnc2c1nnn2-c1ccc(F)cc1)C(=O)OC (stereo not drawn)	-0.5	1.8	-4.7	1.3	-0.8	3.1%	0.724
O=C1CCCc2nc(N3CCN(C(c4ccccc4)c4ccccc4)CC3)ncc21	1.0	6.4	0.1	13.4	-0.2	2.3%	0.738
CC(=O)CSc1ncnc2sc3c(c12)CCCC3	1.3	-0.2	-7.4	-19.1	-0.5	nt	0.681
CCCCCCSc1ccc(-c2nc3cc(C)ccn3c2NC2CCCCC2)cc1	27.2&23.1	-405.5	-4.6	1.1	1.2	nt	0.722
COc1cc(C(=O)NCCCCc2ccccc2)cc(OC)c1OC	1.7	1.9	1.8	0.7	0.8	3.3%	0.648
Cc1ccc(-c2cc(C(=O)Nc3ccc(S(=O)(=O)Nc4nc(C)cc(C)n4)cc3)c3ccccc3n2)cc1	2.5	-1.2	-3.2	-1.3	0.5	?	0.702
CCc1ccc(OCCCC(=O)Nc2ccc(N3CCCCC3)cc2)cc1	-2.4	0.9	-0.1	-1.1	-0.5	-4.9%	0.76
COc1cccc(C(=O)Oc2cccc(N3C(=O)C4C5CC(C(Br)C5Br)C4C3=O)c2)c1 (stereo not drawn)	-3.1	2.4	3.5	2.0	0.0	?	0.725
CC(C)(C)N1CC(c2nc3ccccc3n2CCOc2ccccc2)CC1=O (stereo not drawn)	2.2	3.3	-11.3	-7.9	0.5	25.1%	0.674
CC(=O)NC(CC(=O)NCc1ccncc1)c1ccccc1 (stereo not drawn)	-2.5	-4.2	-13.7	-8.3	0.4	nt	0.735
COCC(C)NC(=O)c1cc(-c2ccc(OC)c(OC)c2)on1 (stereo not drawn)	-5.0	3.4	-0.1	-5.1	0.1	20.5%	0.64
COc1cc(CC(=O)Nc2nc(-c3ccc(F)c(F)c3)cs2)cc(OC)c1OC	-1.4	1.5	-0.1	4.1	0.1	nt	0.666
COc1ccc2c(c1)-c1nc(/N=C/c3cccc(OC)c3O)sc1CC2	4.3	nt	3.4	5.8	1.8	nt	nt
O=C(NCCCn1ccnc1)c1cccc(S(=O)(=O)Nc2ccc(Br)cc2)c1	-0.4	5.9	nt	14.9	0.2	7.2%	0.66
Fc1ccc(CSc2nc3ncccc3[nH]2)cc1	1.4	0.5	2.2	-19.5	-3.8	-3.9%	0.727
O=S(=O)(Nc1nccs1)c1ccc(F)cc1	-0.8	0.0	1.3	5.4	0.6	7.3%	0.719
COCCN1C(=O)C(=O)/C(=C(/O)c2cccc(OC)c2)C1c1ccncc1 (stereo not drawn)	-0.5	12.5	-2.4	11.4	0.8	16.2%	0.711
Cc1ccc(C)c(NC(=S)Nc2ccc(S(=O)(=O)Nc3ncccn3)cc2)c1	2.4	1.4	1.1	-0.8	0.0	-2.6%	0.639
Cc1cc(C)c2c(CCl)cc(=O)oc2c1	0.2	nt	-11.0	43.9*	0.3	25.4%	nt
O=S(=O)(c1ccc(F)cc1F)N1CCCN(c2ccc(C(F)(F)F)cn2)CC1	-0.4	2.0	1.5	4.1	1.6	nt	0.648
CCCC12CN(C(=O)c3ccc([N+](=O)[O-])cc3)CC(C)(CN(C(=O)c3ccc([N+](=O)[O-])cc3)C1)C2=O	-0.1	6.2	-2.2	-3.5	0.6	nt	0.662
COc1ccc(NC(=O)c2ccc(Cn3cc(Cl)cn3)cc2)cc1	6.8	2.3	0.6	3.3	0.8	32.3%	0.677
CC(=O)Nc1ccc(SCC(=O)Nc2ccccc2-c2ccccc2)cc1	-0.6	0.7	0.1	10.3	0.2	15.1%	0.663
COC(=O)c1[nH]c2ccc(Br)cc2c1NC(=O)CN1CCN(C2CCCCC2)CC1	-1.3	2.8	4.3	33.0	-0.3	-8.3%	0.675
O=C(Nc1cccc(C(=O)O)c1)/C(=C\c1ccccc1Cl)NC(=O)c1ccco1	0.9	2.5	4.9	5.6	-1.3	6.9%	0.693
CC(C)(C)n1nnnc1C(c1ccc(C(F)(F)F)cc1)N(Cc1ccc(F)cc1)Cc1ccco1 (stereo not drawn)	0.8	1.2	3.0	0.1	0.4	-5.8%	0.729

New compounds follow
SMILES	HNF4A DNA FP	UCH37 DUB inh	LANA-H2A inh	B2AR ag	A1 inh	Vif A3G	Ecoli growth
Cn1c(/C=N/c2nc3ccccc3[nH]2)nc2ccccc21	-1.5	nt	-0.9	-4.1	1.2	32.1%	nt
COc1ccc(CN2CCn3ncc(C(=O)Nc4ccc(Cl)cc4Cl)c3C2=O)cc1	1.3	-1.8	nt	-7.1	0.8	1.1%	0.785
Cc1ccc(C(=O)N/C(=C/c2ccco2)C(=O)N2CCCCC2)cc1	8.2	8.9	0.2	3.7	0.1	8.4%	0.64
CC(OC(=O)c1cccn1C)C(=O)Nc1ccc2c(c1)OCO2 (stereo not drawn)	2.2	-0.1	-1.3	6.7	-0.3	nt	0.666
Cc1ccc(N2CCN(S(=O)(=O)N3CCOCC3)CC2)cc1C	4.5	0.7	5.3	6.5	-0.9	nt	0.679
O=C1CC(c2ccsc2)c2cc3c(cc2N1)OCCO3 (stereo not drawn)	-0.2	1.8	4.4	-6.5	0.6	-3.9%	0.718
CCN(CC(=O)Nc1ccc(NC(C)=O)cc1)C(=O)Cc1cccc2ccccc12	-0.2	1.4	-1.5	7.0	0.4	nt	0.661
CCOC(=O)c1cnn(-c2ccccc2)c1NC(=O)C(F)(F)C(F)(F)C(F)(F)F	-2.0	1.2	-4.6	-10.8	-0.2	0.3%	0.685
CCOC(=O)c1sc(N(Cc2ccccc2)C(=O)CCl)nc1C	0.5	5.3	-4.7	18.0	1.2	nt	0.648
CC1CCCCN1c1ccc(N)cc1C(N)=O (stereo not drawn)	11.7	3.8	-6.0	-3.9	1.2	0.1%	0.711
COc1cc(C(=O)NCCOc2ccc(Cl)cc2)ccc1OCc1c(C)noc1C	-0.8	2.1	nt	-10.9	nt	7.0%	0.71
CCOc1ccc(NC(=O)Nc2nc3ccc(S(C)(=O)=O)cc3s2)cc1	0.0	-7.3	-1.4	1.7	0.2	nt	0.683
c1cc(-c2nnc(-c3ccncc3)o2)ccn1	0.1	-0.5	1.8	2.9	-0.2	6.2%	0.658
Cc1ccc(C)c(NC(=S)NNC(=O)c2cc3c(s2)CCC(C)C3)c1 (stereo not drawn)	-2.0	-2.6	-1.1	2.4	-0.6	nt	0.689
COC(=O)CSc1nnc(CNc2ccc(F)cc2)o1	-1.2	1.6	-0.2	8.7	1.0	14.3%	0.719
CCOc1ccc(C(=O)Nc2ccc3c(c2)OCO3)cc1OCC	-4.1	-4.2	-8.2	-4.3	-0.7	0.4%	0.676
Cc1cc(NC(=S)NC(=O)c2ccccc2)ccc1-c1cc2ccccc2oc1=O	-0.7	-0.1	-0.4	-7.8	0.3	5.4%	0.705
CCOC(=O)NC(NCC(O)c1ccccc1)(C(F)(F)F)C(F)(F)F (stereo not drawn)	0.2	2.6	-0.6	-0.3	0.1	1.0%	0.643
Cc1ccc(NC(=O)NC(=S)NC(=O)c2ccccc2)cc1	3.0	1.4	2.4	3.4	0.2	-11.4%	0.697
CCOc1ccc(S(=O)(=O)NCCC(=O)NCC(C)(C)N2CCOCC2)cc1	1.8	0.7	10.6	5.0	-0.2	-1.1%	0.673

Entries shown so far containing a CF3 group:
SMILES	HNF4A DNA FP	UCH37 DUB inh	LANA-H2A inh	B2AR ag	A1 inh	Vif A3G	Ecoli growth
O=S(=O)(c1ccc(F)cc1F)N1CCCN(c2ccc(C(F)(F)F)cn2)CC1	-0.4	2.0	1.5	4.1	1.6	nt	0.648
CC(C)(C)n1nnnc1C(c1ccc(C(F)(F)F)cc1)N(Cc1ccc(F)cc1)Cc1ccco1 (stereo not drawn)	0.8	1.2	3.0	0.1	0.4	-5.8%	0.729
CCOC(=O)c1cnn(-c2ccccc2)c1NC(=O)C(F)(F)C(F)(F)C(F)(F)F	-2.0	1.2	-4.6	-10.8	-0.2	0.3%	0.685
CCOC(=O)NC(NCC(O)c1ccccc1)(C(F)(F)F)C(F)(F)F (stereo not drawn)	0.2	2.6	-0.6	-0.3	0.1	1.0%	0.643
